From PubChem BioAssay
Calb FLC: C. albicans growth modulation with fluconazole; C. albicans CaCi-2 (fluconazole-resistant clinical isolate) + fluconazole, Alamar Blue growth, 48 h; growth inhibition, % (concentration not given with the values); actives 0.57% (n = 300,000); AID 1979;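 active means most replicates above 75%; inconclusive means exactly half above 75%; inactive means most below 75%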;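 further: all wells also contain fluconazole at 8 µg/ml as a sub-toxic cotreatment; 0% = median of DMSO wells and 100% = median of geldanamycin control wells; wells of about 8 µL received 7.5 nL stock; the first replicate is given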
RanGTP-Impb inh: disruptors of Ran-importin-beta complex formation – biochemical, FRET, CFP-Ran, YFP-importin-beta, homogeneous, primary screen | actives 1.1% (n = 300,000) | AID 2216 | inhibition, % (test concentration not listed) | cell-free CFP-Ran/YFP-importin-beta FRET ratio;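 active means most replicates above 15%; inconclusive means exactly half above 15%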;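 further: 0% = DMSO wells and 100% = Ran loaded with GDP instead of GTP; wells of about 40 µL received 100 nL stock; the first replicate is given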
Beta apoptosis: blocks beta cell apoptosis | actives 0.8% (n = 300,000) | protection from apoptosis, % (no concentration beside the values) | INS-1E cytokine-induced death, ATP luminescence, 48 h; percent of positive-control rescue, neutral wells zero | AID 435005;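 active means all replicates at 75% or more, or half of them and the mean; inconclusive means half reach 75% but not the mean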;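 further: 0% = cytokine-treated negative control wells and 100% = positive control rescue; higher means more ATP so stronger rescue from cytokine killing; wells of about 40 µL received 100 nL stock; the first replicate is given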
Vif TR-FRET: HIV-1 Vif–A3G interaction blockers – biochemical, TR-FRET, GST-Vif 1-94, biotin-A3G peptide, dose response retest, primary screen (AID 1117319); TR-FRET GST-Vif / biotin-A3G peptide binding; higher % means a stronger effect; test concentration not given here; strong numbers were not always called active; actives 0.57% (n = 260,000); inhibition, %, or IC50 in µM where a hit was titrated;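 active means above the screen mean plus three standard deviations and confirmed in dose response; inconclusive means results disagree or hit not tested in dose response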;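 further: Vif residues 1-94 fused to GST binding biotinylated APOBEC3G peptide 110-148; 0% = full assay without inhibitor and 100% = GST in place of GST-Vif; retest series ran down from 100 µM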
AF4-AF9 inh: blocks AF4 peptide binding to human AF9 | P42568 | AlphaScreen, biotin-AF4 peptide binding to FLAG-AF9 | inhibition, % at 10 µM | actives 0.47% (n = 350,000) | AID 651704;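 active means every replicate reaching a set inhibition limit, whatever the replicate mean, cut at about 25% in these data; inconclusive means mean inhibition reaches that limit but some replicates miss it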;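 further: 0% = plate neutral control median and 100% = total signal loss; the record names both 10 and 1 µM as test concentration; the first replicate is given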
Target sequence (P42568 whole entry, looked up): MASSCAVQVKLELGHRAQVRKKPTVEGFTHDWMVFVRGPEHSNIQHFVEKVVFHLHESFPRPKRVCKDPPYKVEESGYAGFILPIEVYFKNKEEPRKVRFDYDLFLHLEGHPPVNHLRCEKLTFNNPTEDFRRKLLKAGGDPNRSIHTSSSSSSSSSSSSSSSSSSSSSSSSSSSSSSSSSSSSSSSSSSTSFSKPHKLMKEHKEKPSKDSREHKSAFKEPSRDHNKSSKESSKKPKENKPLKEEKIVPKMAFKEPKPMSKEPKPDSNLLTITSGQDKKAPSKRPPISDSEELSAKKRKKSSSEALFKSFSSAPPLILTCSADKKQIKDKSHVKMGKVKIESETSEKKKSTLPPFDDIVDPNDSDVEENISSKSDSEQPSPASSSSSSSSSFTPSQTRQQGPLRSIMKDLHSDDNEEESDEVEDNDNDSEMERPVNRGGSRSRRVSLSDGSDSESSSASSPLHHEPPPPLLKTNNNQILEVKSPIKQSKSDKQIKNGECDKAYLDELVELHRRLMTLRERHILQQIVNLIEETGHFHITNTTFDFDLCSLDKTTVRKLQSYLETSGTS
T cruzi repl: blocks replication of Trypanosoma cruzi | T. cruzi beta-gal in NIH3T3, luminescence, 90 h | inhibition, % (concentration not given with the values) | actives 1.4% (n = 300,000);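 active means mean inhibition across valid replicates above about 55%, limit read from the data; inconclusive means mean below that limit but half or more replicates reach it; inactive means mean below it, under half of replicates reach it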;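 further: signal also drops with host cell toxicity which is not excluded here; 0% = plate median of DMSO wells and 100% = zero luminescence signal; higher percent means less beta-gal luminescence so fewer parasites; stock transfer was 50 nL into about 50 µL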
A1 inh: inhibitors of the anti-apoptotic protein A1, read as caspase activation; MEF A1-2A-BIM cells, Caspase-Glo 3/7 luminescence, 3 h; percent of clofoctol response, vehicle zero; caspase activation, % (concentration not given with the values); actives 0.066% (n = 330,000); AID 2462;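 active means over half of replicate activation scores above 10%, or exactly half above 10 with the replicate mean above 10; inconclusive means replicate mean below 10 yet half the replicates above 10; inactive means over half of replicates below 10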;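 further: wells of about 30 µL received 50 nL stock; many hits fall short of the cut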
rRNA inh HTS: inhibitors of bacterial rRNA selective over humanized ribosomes. actives 1.6% (n = 350,000). E. coli WT GFP vs humanized-ribosome RFP mutants, fluorescence, 24 h; stronger effect = lower value; DMSO median 0, no signal -100. AID 720706. GFP signal change (wild-type ribosome), % (test concentration not listed);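 active means significant combined selectivity score with lowered wild-type GFP, culture density cut under 30%, mutant RFP and density less affected; inactive means any of these conditions unmet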; further: one replicate is shown; some compounds called inactive have numbers as strong as hits
rRNA inh HTS OD600: also measured in rRNA inh HTS; calls as there; OD600 change, %; measured here: OD600 growth;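 optical density of the mix in the first replicate; 0 = DMSO median and -100 = no signal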
rRNA inh HTS RFP: recorded beside rRNA inh HTS, whose call it bears; RFP signal change, %; measured here: RFP humanized mutant strains;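 first replicate; 0 = DMSO median and -100 = no signal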
* hit, by the source's call; ? = inconclusive; / = not tested or not shown. A portion of the library; rates above refer to the full screens.

SMILES | Calb FLC | RanGTP-Impb inh | Beta apoptosis | Vif TR-FRET | AF4-AF9 inh | T cruzi repl | A1 inh | rRNA inh HTS | rRNA inh HTS OD600 | rRNA inh HTS RFP
CC1CCCCN1C(=S)NCc1ccco1 (stereo unspecified) | 4.5 | -1.6 | -2.9 | -14.8% | 0.8 | -6.3 | 0.7 | 4.8 | 8.3 | 7.2
CC(=O)NC12CC3CC(C1)CC(C(=O)N1CCN(S(=O)(=O)c4ccc(Cl)s4)CC1)(C3)C2 | -0.6 | ? | -0.2 | 2.6% | -1.1 | -2.0 | 1.8 | 2.5 | -8.3 | 0.1
CCc1cc(=O)oc2cc(C)cc(OC(C)C(=O)NC(Cc3c[nH]c4ccc(O)cc34)C(=O)O)c12 (stereo unspecified) | -4.9 | 0.1 | -5.5 | / | -0.8 | -4.3 | 0.3 | / | / | /
CCOC(=O)Cc1csc(SCC(=O)N(CC(C)C)c2c(N)n(Cc3ccccc3)c(=O)[nH]c2=O)n1 | 7.0 | 6.0 | -8.2 | -0.9% | -1.1 | -12.8 | 0.2 | 15.5 | 13.7 | 1.4
O=C(COC(=O)c1cccc(Br)c1)NCc1ccco1 | / | / | -4.7 | 10.7% | -0.6 | / | 0.1 | / | / | /
Cc1nc2ccccc2c(=O)n1NC(=O)c1ccccc1 | -9.4 | -4.1 | -1.4 | / | -14.6 | 1.1 | 0.3 | 9.5 | -0.6 | 1.3
COCCCN1C(=O)C(=O)/C(=C(/O)c2ccc(OC(C)C)cc2)C1c1ccncc1 (stereo unspecified) | -9.3 | 4.4 | 2.6 | ? | / | -11.9 | 0.2 | / | / | /
CC(C)C[C@H]1CN=C(Nc2ccccc2)N1CC1CCCCC1 | -31.1 | 1.1 | 16.4 | / | 4.5 | 20.3 | 1.9 | 2.1 | 0.3 | 5.9
C=C1SC(=Nc2c(C)cccc2Cl)N(C(=O)c2sc3ccccc3c2Cl)C12CCCCC2 | -10.0 | 1.7 | 7.2 | 26.4% | 2.3 | 34.2 | -1.1 | 5.2 | 3.8 | 5.4
CCN1CCCC1CN(Cc1cc2ccc(C)cc2[nH]c1=O)C(=S)Nc1ccccc1OC (stereo unspecified) | -2.7 | 3.0 | / | ? | / | 7.3 | 1.2 | / | / | /
CC(=O)Nc1ccc(/C=C2\Sc3ccccc3C2=O)cc1 | -2.9 | 3.6 | -7.9 | 24.0% | 2.4 | -13.1 | -1.6 | / | / | /
CCCc1n[nH]c(=O)c2c1nnn2Cc1ccccc1 | 1.3 | -0.7 | 2.3 | 0.9% | -5.4 | -6.4 | 0.0 | 1.3 | 7.5 | -3.5
Cc1[nH]c(C)c(S(=O)(=O)N2CCN(c3ccccc3)CC2)c1C(=O)N1CCCC1 | -4.4 | 2.1 | -1.8 | 0.4% | 4.0 | -4.2 | 1.5 | 1.3 | 9.3 | 0.8
COc1cc(C(=O)N2CCCc3ccccc32)c([N+](=O)[O-])cc1OC | -4.4 | -2.2 | -2.0 | / | 3.4 | 3.4 | 1.7 | -2.7 | -1.1 | 0.5
O=C(Nc1ccc2ccccc2n1)c1ccc(Cl)cc1 | 5.8 | 2.5 | 2.1 | -1.3% | -0.7 | 12.2 | -2.9 | 3.2 | -0.3 | -1.0
Cc1nc(C)n(CC(O)COc2ccc3cc(Br)ccc3c2)n1 (stereo unspecified) | 13.3 | / | 4.0 | -7.6% | / | 9.3 | -0.7 | / | / | /
COc1ccc(C(=O)OCC(=O)Nc2cc(C)on2)cc1S(=O)(=O)N1CCOCC1 | -2.0 | -0.2 | -12.1 | -6.8% | / | 3.8 | -0.6 | / | / | /
CCC(C(=O)Nc1nccs1)(C(F)(F)F)C(F)(F)F | -13.6 | -0.8 | 7.1 | 3.2% | / | -23.2 | -0.4 | / | / | /
Cc1ccc(P(=O)(CO)c2ccc(C)cc2)cc1 | 8.8 | -1.0 | -11.9 | -1.2% | / | -17.3 | -0.7 | / | / | /
O=C(COc1ncnc2ccccc12)NCC1CCCO1 (stereo unspecified) | -17.1 | -2.4 | -8.2 | 1.1% | 0.8 | -2.6 | 0.7 | 17.3 | 16.6 | -2.4
CC(=O)Nc1ccc(S(=O)(=O)NC2CC(=O)N(c3cccc(F)c3)C2)cc1 (stereo unspecified) | -7.2 | -1.2 | -1.7 | 0.9% | -0.6 | 0.9 | 1.0 | 10.4 | 8.8 | 0.4
O=C1CSC(=S)N1N1C(=O)c2cccc([N+](=O)[O-])c2C1=O | ? | -2.2 | -10.4 | 15.0% | / | -7.3 | -0.7 | / | / | /
COC(=O)c1cc(OC)nc2c1c(=O)n(C)c(=O)n2C | 1.7 | -0.2 | 1.2 | -1.7% | / | -10.1 | 0.9 | / | / | /
CC(=O)Nc1ccc(C(=O)Cn2c3[n+](c4c(F)c(F)ccc42)CCCCC3)cc1 | -28.3 | -2.0 | -0.5 | -1.7% | 4.3 | -1.7 | -0.7 | 13.2 | 9.4 | 2.9
CC(=O)c1c(C)[nH]c(C(=O)COC(=O)c2ccc(Cl)nc2)c1C | / | / | -3.7 | -25.0% | -5.2 | / | -0.1 | -1.4 | 6.1 | -2.7
SMILES | Calb FLC | RanGTP-Impb inh | Beta apoptosis | Vif TR-FRET | AF4-AF9 inh | T cruzi repl | A1 inh | rRNA inh HTS | rRNA inh HTS OD600 | rRNA inh HTS RFP
O=C(c1cccs1)N1CCCC(c2ccccc2)C1 (stereo unspecified) | 4.1 | 6.2 | -14.1 | -1.9% | / | -14.1 | -0.3 | / | / | /
O=C(O)CC(NC(=O)c1ccccc1NC(=O)c1ccccc1)C(=O)O (stereo unspecified) | 0.2 | -1.4 | -1.0 | -4.4% | / | -6.2 | -1.8 | / | / | /
CC(=O)Nc1cc(C(=O)N(C)Cc2ccco2)ccc1Sc1ccc(C)cc1 | -17.2 | 0.5 | -2.5 | -5.4% | / | -16.7 | 0.7 | / | / | /
C=CCSc1nnc(-c2cc3c(C(F)(F)F)nn(C)c3s2)n1C | ? | 4.0 | -6.5 | 2.2% | / | -1.8 | 0.3 | / | / | /
Cc1nn(C)cc1C(=O)c1ccccc1 | -12.6 | -0.8 | 0.3 | / | -2.1 | -10.9 | -0.1 | 5.2 | 1.8 | -3.1
Cc1nc(SCc2ccc(C#N)cc2)n[nH]1 | 8.3 | 3.4 | / | / | -0.4 | -9.4 | -0.3 | -20.4 | -15.4 | 2.4
COc1ccc(C(C(=O)NCC2CCCO2)N(Cc2ccccc2)C(=O)c2snc(C(N)=O)c2N)cc1OC (stereo unspecified) | -0.5 | 2.8 | 2.6 | -0.5% | -2.4 | -1.1 | 0.2 | 0.7 | -5.8 | -1.0
CC1CCC2(CC1)NC(=O)N(CC(=O)Nc1ccc3c(c1)OCO3)C2=O (stereo unspecified) | / | / | -1.6 | / | 1.9 | / | 0.9 | 0.6 | 1.1 | -0.5
O=C(Nc1ccon1)c1cccc(S(=O)(=O)N2CCCC2)c1 | -11.0 | ? | -5.4 | 15.3% | / | 11.4 | -1.4 | / | / | /
Cn1nccc1C(=O)NC1CC(C)(C)Cc2c1cnn2-c1ccc(F)cc1 (stereo unspecified) | 3.4 | -2.2 | -0.4 | / | 0.6 | -24.1 | 0.1 | 7.5 | 4.6 | 1.2
O=C1/C(=C/c2cccs2)SC(=S)N1NS(=O)(=O)c1ccccc1 | 50.1 | -0.7 | 3.6 | -2.4% | -2.0 | -6.5 | 0.6 | -26.6* | 1.7* | -4.3*
O=C(CS(=O)(=O)c1cn(Cc2ccc(Cl)cc2)c2ccccc12)N1CCOCC1 | -1.6 | 4.0 | -0.1 | 20.8% | 2.3 | 10.7 | 0.1 | 4.2 | 10.2 | 0.7
COCCn1c(SCC(=O)Nc2ccccc2)nc2c1c(=O)[nH]c(=O)n2C | -2.2 | -2.4 | -5.5 | 0.0% | 5.4 | -14.1 | -0.8 | 8.5 | 7.9 | 5.0
CN1CCN(C2=C(Cl)C(=O)N(c3ccc(Cl)cc3)C2=O)CC1 | -6.3 | -6.6 | 1.2 | 14.4% | / | -18.1 | -0.1 | / | / | /
Cc1nc2ccc3nc(NC(=O)c4ccco4)sc3c2s1 | 69.7 | 2.2 | 8.4 | 0.6% | / | -1.9 | -5.1 | / | / | /
NCC(=O)N1CCC(C(=O)N[C@@H](Cc2c[nH]c3ccccc23)C(=O)O)CC1 | -2.2 | 1.5 | -4.7 | -4.8% | -2.2 | -11.0 | 0.2 | 9.5 | 10.3 | -0.3
Cc1cc2c(NC(=O)Nc3ccc(C(F)(F)F)cc3)cccc2nn1 | 6.5 | 2.9 | 12.7 | ? | -0.5 | 68.6* | 0.6 | -45.3 | -52.0 | 66.1
COc1ccc(N2C(=O)[C@@H]3[C@H](C2=O)[C@H]2C=CC=NN2[C@@H]3C(=O)Nc2ccc(Cl)cc2)cc1 | 6.8 | -2.5 | -0.8 | / | 1.1 | -0.4 | 0.3 | 8.6 | 4.3 | 5.0
CC1=N/C(=C\c2ccc3c(c2)OCO3)C(=O)N1c1ccc(C(=O)O)cc1 | 2.8 | 3.1 | -1.8 | / | / | -15.0 | -4.3 | / | / | /
CCOC(=O)N1CCN(c2c(NCCc3ccc(OC)c(OC)c3)c(=O)c2=O)CC1 | -8.1 | -0.2 | -3.8 | 2.0% | -5.5 | -5.8 | -0.5 | -0.3 | 7.6 | -2.6
COc1ccc(N=CC=C2OC(C)(C)C(C)(C)O2)cc1OC | 17.6 | 14.7* | -7.5 | 25.3% | 4.1 | 17.8 | 0.7 | 1.0 | 7.5 | 3.3
S=c1nc(Cc2ccccc2)[nH]c2ccccc12 | 27.1 | 0.4 | / | / | -3.9 | -21.2 | -0.6 | -18.6 | -13.8 | -1.5
COc1ccc(C(=O)Nc2c(N)nc(SCC(=O)Nc3ccc(NC(C)=O)cc3)[nH]c2=O)cc1OC | -1.4 | 0.4 | -3.8 | / | -0.9 | 2.1 | -0.4 | 5.2 | 13.6 | 4.0
CCC1CCCCN1CCNC(=O)C1CCN(S(=O)(=O)c2c(C)noc2C)CC1 (stereo unspecified) | -1.3 | 2.3 | -8.8 | 26.6% | / | -1.9 | 0.6 | / | / | /
CC1Sc2ccc(C(=O)Nc3cc(S(C)(=O)=O)ccc3Cl)cc2NC1=O (stereo unspecified) | / | / | 6.7 | -5.1% | 0.1 | / | -0.2 | 4.9 | 14.6 | -2.0
COc1ccc(Cl)cc1NC(=O)CN(C)C(=O)C12CC3CC(CC(Cl)(C3)C1)C2 | -6.8 | -0.5 | -4.0 | / | -1.3 | 16.3 | -0.4 | -28.2 | -32.1 | -4.4
